# Compound activity deposited in PubChem BioAssay by Johns Hopkins Ion Channel Center.
# KCNQ2 enhance = potentiators of rat KCNQ2 potassium channel. B-score at 10 µM. CHO-K1 KCNQ2, FluxOR thallium flux fluorescence; hits give high values. 310,000 tested, 0.54% active;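 active = fluorescence ratio B-score at least 3 SD of library B-scores, with initial fluorescence B-score within 3 SD, cut at about 5.3 in these data; same plate scores as AID 2156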;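 also: B-score of peak minus minimum over baseline fluorescence ratio after K+ and Tl+ stimulus; positive B-score means potentiation of KCNQ2 with more thallium influx and brighter signal; only the inactives scoring about 0 or higher are listed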
# Target sequence (O88943 whole entry, looked up): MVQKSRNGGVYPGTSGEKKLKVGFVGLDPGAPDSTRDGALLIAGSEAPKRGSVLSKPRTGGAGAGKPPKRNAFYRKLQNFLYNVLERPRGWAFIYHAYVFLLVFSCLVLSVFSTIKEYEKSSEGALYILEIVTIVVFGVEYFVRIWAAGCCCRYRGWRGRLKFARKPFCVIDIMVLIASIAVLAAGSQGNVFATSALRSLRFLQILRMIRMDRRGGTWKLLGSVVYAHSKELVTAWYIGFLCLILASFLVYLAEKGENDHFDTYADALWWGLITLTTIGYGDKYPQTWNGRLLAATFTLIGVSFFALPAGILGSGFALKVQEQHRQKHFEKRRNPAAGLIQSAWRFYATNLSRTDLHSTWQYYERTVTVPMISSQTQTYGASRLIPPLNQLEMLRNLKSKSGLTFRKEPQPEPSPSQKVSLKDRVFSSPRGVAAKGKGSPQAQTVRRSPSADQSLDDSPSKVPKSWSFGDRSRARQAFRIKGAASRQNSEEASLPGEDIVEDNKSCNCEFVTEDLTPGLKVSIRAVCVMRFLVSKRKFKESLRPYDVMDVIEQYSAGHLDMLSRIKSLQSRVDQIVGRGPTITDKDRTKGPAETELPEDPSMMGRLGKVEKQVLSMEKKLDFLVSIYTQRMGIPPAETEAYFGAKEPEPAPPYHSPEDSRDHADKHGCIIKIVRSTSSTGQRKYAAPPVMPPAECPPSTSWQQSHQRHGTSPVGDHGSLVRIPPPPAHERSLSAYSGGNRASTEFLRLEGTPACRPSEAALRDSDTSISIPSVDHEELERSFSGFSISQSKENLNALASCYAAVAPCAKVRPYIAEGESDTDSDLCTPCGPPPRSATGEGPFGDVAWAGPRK
# KCNQ2 enhance baseline = further read-out of KCNQ2 enhance, marked with its call; B-score; compound at 10 µM; measured here: initial fluorescence intensity artifact check;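 brightness before thallium and not channel activity; 0 = typical well and far values either way flag optical interference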
# The depositor's hits bear a star. The list is partial, so the mix of outcomes need not match the whole.
SMILES | KCNQ2 enhance | KCNQ2 enhance baseline
COc1ccc(C2SCC(=O)Nc3c2c(C)nn3C2CCOC(C)(C)C2)cc1OC (stereo not given) | 0.71 | -0.26
CCCn1c(C)cc(C=O)c1C | 1.2 | -0.91
COc1ccccc1CCNC(=O)CCC(=O)N1CC2C[C@@H](C1)Cn1c2cccc1=O | 0.98 | 0.71
NC(=O)CN1C2CCC1CC(NC(=O)C1CC1)C2 (stereo not given) | 0.41 | -0.92
O=c1[nH]c(=S)n(C2CC2)c(O)c1C=NCc1cccnc1 | 0.09 | 0.02
CCN1CC2C3CCC(C)(O3)C2C1 (stereo not given) | 0.11 | -0.06
CCCCn1c(O)c(C(C)=NC(C)c2ccccc2)c(=O)[nH]c1=O (stereo not given) | 0.93 | -2.6
Cc1ccc2[nH]c3c(c2c1)CN(C(=O)CN1C[C@H]2C[C@@H](C1)c1cccc(=O)n1C2)CC3 | 1 | 0
COC(=O)C(O)(c1ccc(NC(=S)NC(=O)c2ccc(Cl)cc2Cl)cc1)C(F)(F)F (stereo not given) | 0.03 | 0.97
CCCNC1=C(C)C(=O)C2=C(C1=O)C(COC(N)=O)[C@]1(OC)C3NC3CN21 (stereo not given in full) | 0.7 | 1.2
COC(=O)C1=C(c2cc3ccccc3o2)C[C@@H]2CC[C@H]1N2C(=O)NCc1ccc(C(F)(F)F)cc1 | 2.1 | -1.2
COc1ccc(NC(=O)c2cn(CCC#N)nc2-c2cccc(Br)c2)cc1 | 0.56 | -0.42
CCOc1ccc(NC(=O)c2c(C)nn(Cc3ccccc3)c2Cl)cc1 | 0.98 | -0.62
Clc1ccc(Cn2ccnc2)cn1 | 0.88 | 0.02
CC(=O)Nc1ccc(OC(=O)N(C)C)cc1 | 0.37 | 1.2
O=C(N/N=C/c1c(O)n(C2CCCCC2)c(=S)[nH]c1=O)c1ccccc1O | 0.98 | -0.01
c1ccc(CN2CCc3nc4ccccc4cc3C2)cc1 | 0.46 | 1.1
O[C@H]1C2CCC1C(N1CCCCC1)CC2 (stereo not given in full) | 1.1 | -0.32
O=C(COc1ccc2c3c(c(=O)oc2c1)CCC3)N1C[C@H]2C[C@@H](C1)c1cccc(=O)n1C2 | 0.04 | -0.24
CCN1CCN(Cc2cc(Br)cc(OC)c2O)CC1 | 1.1 | -0.83
CCOc1ccc(-n2c(-c3cccs3)nc3ccccc3c2=O)cc1 | 1.2 | 0.24
CCCCCCCCN=Cc1c(O)[nH]c(=O)[nH]c1=O | 1.8 | 0.02
C=C(C)CSc1nnc([C@@H](N)Cc2ccccc2)o1 | 0.14 | 0.15
Cn1c(O)c(C2=NNC(c3ccc(Cl)cc3)C2)c(=O)n(C)c1=O (stereo not given) | 5.1 | 1.7

# In another format: entries from further up.
# Values run as follows: KCNQ2 enhance	KCNQ2 enhance baseline
COC(=O)C(O)(c1ccc(NC(=S)NC(=O)c2ccc(Cl)cc2Cl)cc1)C(F)(F)F (stereo not given)
  0.03	0.97
CCCNC1=C(C)C(=O)C2=C(C1=O)C(COC(N)=O)[C@]1(OC)C3NC3CN21 (stereo not given in full)
  0.7	1.2
COC(=O)C1=C(c2cc3ccccc3o2)C[C@@H]2CC[C@H]1N2C(=O)NCc1ccc(C(F)(F)F)cc1
  2.1	-1.2
COc1ccc(NC(=O)c2cn(CCC#N)nc2-c2cccc(Br)c2)cc1
  0.56	-0.42
CCOc1ccc(NC(=O)c2c(C)nn(Cc3ccccc3)c2Cl)cc1
  0.98	-0.62

# Full records, looked up by structure. Screens in order: KCNQ2 enhance	KCNQ2 enhance baseline
# CCOc1ccc(-n2c(-c3cccs3)nc3ccccc3c2=O)cc1 is listed with 1.2	0.24
# COc1ccccc1CCNC(=O)CCC(=O)N1CC2C[C@@H](C1)Cn1c2cccc1=O is listed with 0.98	0.71
# COc1ccc(C2SCC(=O)Nc3c2c(C)nn3C2CCOC(C)(C)C2)cc1OC (stereo not given) is listed with 0.71	-0.26
# O=C(N/N=C/c1c(O)n(C2CCCCC2)c(=S)[nH]c1=O)c1ccccc1O is listed with 0.98	-0.01
# COC(=O)C(O)(c1ccc(NC(=S)NC(=O)c2ccc(Cl)cc2Cl)cc1)C(F)(F)F (stereo not given) is listed with 0.03	0.97
